Bioassay records from PubChem.
VDR inh = Inhibitors of the vitamin D receptor (VDR): qHTS; Vitamin D3 receptor (Homo sapiens), P11473; 0.93% of 400,000 active; Potency, µM, inactives show max response, negative = inhibition, hits mostly inhibitors; VDR-SRC2-3 peptide fluorescence polarization, 2 h; active = well fitted inhibition curve with a large enough effect; inconclusive = small, poorly fitted or top-dose-only effect, or another doubt; inactive = no such curve, though single readings can be large or run the other way; also: series mostly up to about 120 µM
Target sequence (P11473 whole entry, looked up): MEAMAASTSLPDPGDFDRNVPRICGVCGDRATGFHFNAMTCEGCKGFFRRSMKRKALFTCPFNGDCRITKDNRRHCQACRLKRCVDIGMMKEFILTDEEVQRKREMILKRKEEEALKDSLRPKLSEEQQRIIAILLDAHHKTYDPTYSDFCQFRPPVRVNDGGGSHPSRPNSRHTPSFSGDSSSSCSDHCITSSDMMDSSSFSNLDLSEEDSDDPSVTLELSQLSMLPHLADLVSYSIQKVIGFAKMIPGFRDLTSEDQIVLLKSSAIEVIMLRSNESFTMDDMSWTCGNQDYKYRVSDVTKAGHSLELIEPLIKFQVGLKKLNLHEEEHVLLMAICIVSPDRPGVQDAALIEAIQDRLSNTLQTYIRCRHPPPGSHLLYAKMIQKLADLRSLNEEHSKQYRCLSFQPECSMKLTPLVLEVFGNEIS
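After 23 nl compound addition and a short centrifugation, plates sat for 2 hours at ambient temperature; polarization of fluorescence then indicated loss of VDR binding to peptide SRC2-3.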
* marks the source's active call; other numbers are inactive results; u = inconclusive; & = joins results of further samples. % is scaled to controls: 0 for no effect and ±100 for the full control effect; potency is read from the fitted curve at half-maximal effect.

1) CC1=Nc2cc(C(=O)NC3CCCC3)ccc2Sc2ccc(C)cc21
  VDR inh = -11%
2) Cc1noc(C)c1NC(=O)NCCN1CCN(Cc2ccccc2)CC1
  VDR inh = -16%
3) COc1ccccc1C(=O)NC(=O)Nc1ccc(-c2cc(C(F)(F)F)nn2-c2ccccc2)cc1
  VDR inh = 3%
4) CCn1c(SCC(=O)Nc2ccccc2Cl)nnc1C1CC1
  VDR inh = -1%
5) CC1CCC2[C@](C)(CO)C(O)CC[C@]2(C)C12CCC(CO)(CCO)O2 (stereo partly drawn)
  VDR inh = 11%
6) Cc1ccc(CNC(=O)Cn2ncn3cccc3c2=O)cc1
  VDR inh = 8%
7) CCCCC(CCC(=O)O)(C(=O)OCC)c1csc(Nc2ccc(C)cc2)n1 (stereo not drawn)
  VDR inh = u
8) Cn1cnnc1SCc1ccc(C(=O)N/N=C(\CCC(=O)O)c2ccc(C(C)(C)C)cc2)cc1
  VDR inh = -4%
9) O=C(Nc1nccs1)C1CC=CCC1 (stereo not drawn)
  VDR inh = -15%
10) Cc1ccc(SCc2cn3ccccc3n2)cc1
  VDR inh = 5%

11) O=C(Nc1cccc(Cl)c1)NC1CCS(=O)(=O)C1 (stereo not drawn)
  VDR inh = -11%
12) C=CCN1C(=O)C2(OCCCO2)c2cc(C)ccc21
  VDR inh = 2%
13) CCCc1nnc(NC(=O)C2CC(=O)N(CCc3ccc(F)cc3)C2)s1 (stereo not drawn)
  VDR inh = -22%
14) CCc1nnc2sc(-c3ccc(NC(=O)c4ccc5c(c4)OCCO5)cc3)nn12
  VDR inh = -13%
15) O=C(Nc1nc2ccccc2s1)c1c(F)cccc1Cl
  VDR inh = -18%
16) Cc1nnc(SCC(=O)Nc2nsc(-c3ccccc3)n2)s1
  VDR inh = 2%
17) COC(=O)C(c1cc(OC)c(O)c(OC)c1)(N1CCNC(C)C1)C(F)(F)F (stereo not drawn)
  VDR inh = -4%
18) O=C(CSc1nc2cc(Cl)ccc2s1)NCc1ccc2c(c1)OCO2
  VDR inh = 10%
19) O=C(/C=C/c1ccc(F)cc1)NCCCn1ccnc1
  VDR inh = -10%
20) CCn1nc(C)c(/C=N/NC(=O)Cn2nnnc2N)c1C
  VDR inh = -2%

21) C=C(c1ccccc1C)[n+]1ccccc1
  VDR inh = u
22) CC(C)(C)c1ccc(N=C2SCC(=O)N2Cc2cccs2)cc1
  VDR inh = 18%
23) COc1ccc(C(=O)NC(C(=O)N2CCc3ccccc32)C(C)C)cc1 (stereo not drawn)
  VDR inh = -18%
24) NC(=O)CSc1nc2scc(-c3ccc(Cl)cc3)c2c(=O)n1Cc1ccccc1
  VDR inh = -1%
25) O=C(Nc1ccc(Cl)cc1)c1cc2nc(-c3ccco3)cc(C(F)(F)F)n2n1
  VDR inh = -3%
26) CCOc1ccc(-c2cccc(NC(=O)COc3ccccc3)c2)nn1
  VDR inh = 3%
27) COc1ccc(N(CC(=O)O)S(C)(=O)=O)cc1OC
  VDR inh = -2%
28) O=[N+]([O-])c1ccc(Sc2nccn2Cc2ccccc2)c([N+](=O)[O-])c1
  VDR inh = -27%
29) Cc1ccc(CNC(=O)C2CC(c3ccc([N+](=O)[O-])cc3)=NO2)cc1 (stereo not drawn)
  VDR inh = 1%
30) O=C(CCCCCNC(=O)N1CCn2c1nc1ccccc12)NCc1ccc(F)cc1
  VDR inh = -29%

31) COc1ccc(CNC(=O)COC(=O)CO/N=C(\C)c2ccc3c(c2)OCO3)cc1
  VDR inh = 3%
32) CCCN1CCN(c2ncnc3scc(C4COc5ccccc5O4)c23)CC1 (stereo not drawn)
  VDR inh = -4%
33) COc1ccc(CNC(=S)Nc2ccc(F)c(Cl)c2)cc1
  VDR inh = -11%
34) O=c1[nH]cnc2c1N1CCC2CC1
  VDR inh = 11%
35) COc1ccc(S(=O)(=O)n2nc(-c3ccco3)nc2NCc2ccc(N(C)C)cc2)cc1
  VDR inh = -3%
36) CS(=O)(=O)c1cccc(C(=O)Nc2cccc(S(=O)(=O)N3CCCC3)c2)c1
  VDR inh = 23%
37) Cc1c(Cl)c([N+](=O)[O-])nn1CC(=O)Nc1ccc2c(c1)OCO2
  VDR inh = 13%
38) CCCc1cnc(NCCNCC(O)COc2ccc(Cl)c(Cl)c2)nc1 (stereo not drawn)
  VDR inh = 0%
39) O=C(NC(=S)Nc1cccc(Cl)c1)c1cncc(Br)c1
  VDR inh = 2%
40) COc1ccc(/C=N/NC(=O)Cn2c(Cc3ccc(OC)c(OC)c3)nc3ccccc32)cc1
  VDR inh = 7%

41) Cc1cc(C)c2oc(=O)cc(CN3CCN(Cc4ccccc4)CC3)c2c1
  VDR inh = 3%
42) CCOC(=O)c1cc(-c2csc(-c3cccc(Cl)c3)n2)on1
  VDR inh = -19%
43) Cc1cccc(CN2CCC(Oc3ccc(C(=O)N4CCCCC4)cc3)CC2)c1
  VDR inh = -16%
44) O=C(Cc1c[nH]c2ccccc12)Nc1nnc(C2CC2)s1
  VDR inh = 0%
45) COCCCn1nnnc1SCC(=O)Nc1nc2ccccc2s1
  VDR inh = 3%
46) O=C(CSCc1ccc(F)cc1)Nc1ccccc1C(=O)N1CCOCC1
  VDR inh = 10%
47) O=C(NCC(=O)N1CCCC1)c1cccs1
  VDR inh = 7%
48) CCCCNC(=O)c1nn(-c2ccc(CC)cc2)nc1CO
  VDR inh = 14%
49) CCOC(=O)c1cc(-c2ccc(C)cc2)n(CCC(=O)NC(C)CC)c1C (stereo not drawn)
  VDR inh = -10%
50) CCOC(=O)CNC(=S)NN(C)C
  VDR inh = 20%

51) Cc1nc(C)c(-c2csc(Nc3ccccn3)n2)s1
  VDR inh = 0%
52) COc1cc(-c2[nH]nc3c2C(c2ccoc2)C(C#N)=C(N)O3)cc(OC)c1OC (stereo not drawn)
  VDR inh = -14%
53) Cc1ccc(NC(=O)C(=O)NCC(c2ccc3c(c2)OCO3)N2CCOCC2)cc1C (stereo not drawn)
  VDR inh = 1%
54) CC(C)[C@H](NC(=O)OC(C)(C)C)C(=O)NCC1CCC(C(=O)N[C@@H](Cc2ccccc2)C(=O)O)CC1 (stereo partly drawn)
  VDR inh = 5%
55) Cc1ccc(CNC(=O)COC(=O)CN2C(=O)C3CC=CCC3C2=O)cc1 (stereo not drawn)
  VDR inh = 10%
56) COc1ccc(/C=C/C(=O)OCc2cccc([N+](=O)[O-])c2)cc1
  VDR inh = -16%
57) CC(C)OC(=O)COc1ccc(-c2ccccc2)cc1
  VDR inh = -12%
58) O=C(CCn1c(=O)oc2ccccc21)Nc1nc2ccccc2s1
  VDR inh = 5%
59) O=C(CNC(=O)c1sc2ccccc2c1Cl)NC1CC1
  VDR inh = 10%
60) O=C(NCC1CCCO1)c1cc(S(=O)(=O)N2CCCC2)c(Cl)cc1Cl (stereo not drawn)
  VDR inh = 5%

61) CC1(C)C2CC[C@]1(C)C(=O)N(CCCCN1CCN(c3ccccn3)CC1)C2=O
  VDR inh = 13%
62) O=C(CCNC(=O)Cn1ccc2ccccc2c1=O)NCCCN1CCN(c2ccc(F)cc2)CC1
  VDR inh = -1%
63) COc1ccc(C(=O)O)cc1S(=O)(=O)NCc1ccncc1
  VDR inh = -14%
64) Fc1ccc(Nc2nc(Oc3ccc4c(c3)OCO4)nc(N3CCOCC3)n2)c(F)c1
  VDR inh = -5%
65) COc1ccccc1NS(=O)(=O)c1cc(NC(=O)Cc2n[nH]c(=O)c3ccccc23)ccc1Cl
  VDR inh = 3%
66) CCC(C(=O)OC)n1cnc2scc(-c3ccc(C)c(C)c3)c2c1=O (stereo not drawn)
  VDR inh = -4%
67) CN(c1ccc(C(=O)NCC2CCCO2)cc1)S(=O)(=O)c1ccccc1 (stereo not drawn)
  VDR inh = 20%
68) CC(=O)Nc1cccc(C(=O)O)n1
  VDR inh = u
69) CCOCCCNC(=O)c1c[nH]c2ccc(C)cc2c1=O
  VDR inh = -3%
70) O=C(CSc1nnc(Cc2ccccc2)n1-c1ccc(F)cc1)N1CCOCC1
  VDR inh = 5%

71) CC(=O)N1CCN(C(=O)c2ccco2)CC1
  VDR inh = 8%
72) CC1CCN(CC(=O)Nc2ccc(N3CCCCCC3)cc2)CC1
  VDR inh = -10%
73) O=C(NCCC1CCCCN1S(=O)(=O)c1ccccc1)C(=O)Nc1ccc(F)cc1 (stereo not drawn)
  VDR inh = 1%
74) COc1ccc(C)cc1NC(=O)CSc1ccc(-c2ccccn2)nn1
  VDR inh = -16%&12%
75) CC(C)n1nnc(-c2ccc(OCc3ccccc3F)cc2)n1
  VDR inh = u
76) COCC1CCN(C(=O)c2ccc3oc(Cc4ccccc4)nc3c2)C1 (stereo not drawn)
  VDR inh = -2%
77) Cc1cc2c(cc1S(=O)(=O)NC1CCCCC1C)OCC(=O)N2 (stereo not drawn)
  VDR inh = -2%
78) Cc1ccc(S(=O)(=O)NC(C)C(=O)N2CCOCCOCCOCC2)cc1 (stereo not drawn)
  VDR inh = -10%
79) CC(=O)N1CCc2cc(S(=O)(=O)NC(CC(C)C)C(=O)NCc3ccccc3Cl)ccc21 (stereo not drawn)
  VDR inh = 3%
80) COC(=O)c1ccc(/C=C2/SC(=S)N(CCC(=O)N3CCOCC3)C2=O)cc1
  VDR inh = 12%

81) Cc1ccc(S(=O)(=O)N2C(=O)[C@@H]3Cc4ccccc4CN3C2=O)cc1
  VDR inh = 4%
82) CC(C)C(NC(=O)c1ccc(Cl)c([N+](=O)[O-])c1)C(=O)NCc1ccccn1 (stereo not drawn)
  VDR inh = -4%
83) OCCNCCCCOc1ccccc1F
  VDR inh = -11%
84) CCN(C(=O)CSc1nc2cc(C(=O)O)ccc2c(=O)n1-c1ccccc1F)C1CCS(=O)(=O)C1 (stereo not drawn)
  VDR inh = -17%
85) FC(F)(F)c1nnc2sc(-c3ccco3)nn12
  VDR inh = 4%
86) CC(C)c1nnc(NC(=O)C2CCN(S(=O)(=O)c3ccc(-n4cnnn4)cc3)CC2)s1
  VDR inh = -8%
87) O=C(COc1ccccc1[N+](=O)[O-])N/N=C/c1cccs1
  VDR inh = -3%
88) Brc1ccc(-c2csc(N3CCOCC3)n2)cc1
  VDR inh = -18%
89) COc1ccccc1CNC(=O)N[C@@H](Cc1ccccc1)C(=O)O
  VDR inh = 3%
90) Cc1ccc(N2C(=O)C3C4CCC(O4)C3C2=O)c(OC(F)F)c1 (stereo not drawn)
  VDR inh = 23%

91) O=c1c2ccccc2nnn1CSc1nc2ccccc2c(=O)n1CCCO
  VDR inh = 16%
92) Cc1nc(N2CCOCC2)c2c(C(=O)N3CCN(c4cc(Cl)ccc4C)CC3)c(C)oc2n1
  VDR inh = 18%
93) O=C1OCCN1C(=O)[C@H]1[C@H](c2ccccc2)C(c2ccccc2)=NN1c1ccccc1
  VDR inh = -16%&9%
94) O=C(Nc1ccc(OCC(F)(F)C(F)F)c(C(F)(F)F)c1)c1ccc(Cl)cc1
  VDR inh = 4%
95) O=C(NCCOCCOCCNC(=O)c1cccnc1)c1cccnc1
  VDR inh = -3%
96) CSc1cccc(-c2nnc(NC(=O)c3ccc4c(c3)OCCO4)o2)c1
  VDR inh = 7%
97) C=CCn1c(SCC(=O)c2c(N)n(C)c(=O)n(C)c2=O)nnc1-c1ccncc1
  VDR inh = -11%
98) Cc1cc(S(=O)(=O)NCc2ccc(N3CCN(C)CC3)cc2)c(C)s1
  VDR inh = 9%
99) CN(C)CCNS(=O)(=O)c1ccc(N2CCc3ccccc32)c([N+](=O)[O-])c1
  VDR inh = -2%
100) COc1ccc(-c2cnc(NCc3ccc(C)cc3)n2C)cc1
  VDR inh = -5%

101) O=C(CN1CCN(S(=O)(=O)c2ccc(Br)cc2)CC1)N/N=C/c1ccncc1
  VDR inh = 1%
102) CC(Sc1nnc(-c2cccs2)n1-c1ccccc1)C(=O)NCc1ccco1 (stereo not drawn)
  VDR inh = -8%
103) CC1=C(C(=O)Nc2ccccc2)C(c2cccs2)C(C#N)=C(SCC#N)N1 (stereo not drawn)
  VDR inh = 23%
104) c1cc(Nc2ncnc3sc4c(c23)CCC4)ccn1
  VDR inh = -12%
105) COc1ccc(NC(=S)N2CCN(S(C)(=O)=O)CC2)cc1
  VDR inh = -11%
106) COc1cccc(NC(=O)Cn2c(=O)n(CC(=O)NCc3ccc(C)cc3)c(=O)c3sccc32)c1
  VDR inh = 18%
107) COc1ccc2c(c1)C(=O)N(c1ccc(C)cc1)C(=O)C2
  VDR inh = 7%
108) CCn1cc(CCC(=O)NCc2ccc(F)cc2)c2ccccc21
  VDR inh = -4%
109) O=C(c1cc2nc(-c3ccco3)cc(C(F)(F)F)n2n1)N1CCN(c2ccccn2)CC1
  VDR inh = -2%
110) COc1cc(/C=C2\C(=N)N3N=C(S(C)(=O)=O)SC3=NC2=O)ccc1OCCOc1ccc(C)cc1
  VDR inh = 8%

111) CCCCCn1c(=N)c(S(=O)(=O)c2ccccc2)cc2c(=O)n3cccc(C)c3nc21
  VDR inh = -6%
112) Cc1cc(C(=O)N2CCCC(N3CCN(Cc4ccc5c(c4)OCO5)CC3)C2)n[nH]1 (stereo not drawn)
  VDR inh = -11%
113) CC1CCN(C(=O)c2ccc(N3C(=O)C4CCC(C)CC4C3=O)cc2)CC1 (stereo not drawn)
  VDR inh = 10%
114) O=C(C1CC1)N1CCc2cc(Br)cc(S(=O)(=O)NCc3ccco3)c21
  VDR inh = -7%
115) Cc1ccccc1-c1nnn(CC(=O)Nc2ccc3c(c2)OCO3)n1
  VDR inh = -6%
116) Cc1onc(-c2ccccc2Cl)c1C(=O)OCC(=O)c1c(N)n(C)c(=O)n(C)c1=O
  VDR inh = -5%
117) O=C(O)c1ccc(CNC(=O)c2ccc(C(F)(F)F)cc2)cc1
  VDR inh = 6%
118) CCOC(=O)CSc1n[nH]c(-c2cccnc2)n1
  VDR inh = -2%
119) Oc1cccc(/C=N/n2c(C3CCCCC3)n[nH]c2=S)c1
  VDR inh = -2%
120) O=S1(=O)C=CC(Nc2ccccc2)C1 (stereo not drawn)
  VDR inh = u

Only part of the results is shown, so the mix of outcomes need not match the whole.
